Screening results from PubChem.
Vaccinia stage = blocks a specific stage of Vaccinia orthopoxvirus infection | activity change (mCherry), % (no concentration beside the values) | AID 1053133 | Vaccinia-infected cells, mCherry/Venus stage reporter fluorescence; hits give low values; some inactives read as strong as hits | actives 0.01% (n = 89,000);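 active = mCherry past -33% and 40 or more points under the early reporter, replicates agreeing; inconclusive = past -33% without that gap or agreement; tested in A549 cells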;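 note: scaled between vehicle wells and reference inhibitor wells; 23 nL library stock went into each well; one replicate is shown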
Vaccinia stage Venus = recorded beside Vaccinia stage, whose call it bears; activity change (Venus), %; measured here: Venus reporter, other viral stage;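 negative = less Venus signal; first of two replicates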
Numbers without * were called inactive; ? = inconclusive; / = not tested or not shown; & = joins results of further samples. A portion of the library. The share of hits here may be higher or lower than overall.

compound,Vaccinia stage,Vaccinia stage Venus
C[C@@H](NC(=O)C[C@@H]1C[C@@H]2c3cc(NC(=O)C4CCC4)ccc3O[C@@H]2[C@H](CO)O1)c1ccccc1,18,13
CO[C@@H]1CN(C)C(=O)c2ccc(NC(=O)c3ccc4c(c3)OCO4)cc2OC[C@@H](C)N(CC2CC2)C[C@H]1C,8,0
CCCNC(=O)N[C@H]1CC[C@H](CCn2cc(C3CC3)nn2)O[C@@H]1CO,1,4
C[C@H](CO)N1C[C@H](C)[C@H](CN(C)C(=O)Nc2ccccc2)Oc2ncc(-c3ccc(F)cc3)cc2C1=O,-9,-18
COC(=O)c1ccc(CN2CC(=O)N3[C@H](C2)[C@@H](c2ccc(-c4ccccc4F)cc2)[C@@H]3CO)cc1,8,-4
O=C(Nc1cccc(F)c1)N1CC(=O)N2[C@H](CO)[C@@H](c3ccc(C#CC4CC4)cc3)[C@H]2C1,-27,-36
C[C@@H]1CN([C@H](C)CO)C(=O)c2cc(-c3cccnc3)cnc2O[C@@H]1CN(C)C(=O)C1CCOCC1,18,7
O=C(NCC[C@@H]1CC[C@@H](NS(=O)(=O)Cc2ccccc2)[C@@H](CO)O1)C1CCOCC1,9,1
O=C(C[C@@H]1C=C[C@H](NC(=O)c2cnccn2)[C@@H](CO)O1)NCc1ccccc1F,-7,2
COCC(=O)N(C)C[C@H]1Oc2ncc(C#Cc3ccccc3OC)cc2C(=O)N([C@H](C)CO)C[C@H]1C,15,8
COc1ccccc1-c1ccc([C@@H]2[C@@H](C#N)N(C(=O)C3CC3)[C@@H]2CO)cc1,5,1
Cc1ccc(S(=O)(=O)N(C)C[C@@H]2OCc3cn(nn3)CCCC(=O)N([C@H](C)CO)C[C@H]2C)cc1,0&7,4&9
COc1ccccc1CNC(=O)C[C@H]1C[C@H]2c3cc(NC(=O)Cc4ccncc4)ccc3O[C@H]2[C@@H](CO)O1,-16,-10
O=C(C1CC1)N1[C@H](CO)[C@H](c2ccccc2)C12CN(CCC(F)(F)F)C2,-7,6
C[C@H](NC(=O)C[C@@H]1CC[C@@H](NC(=O)CN2CCOCC2)[C@H](CO)O1)c1ccccc1,-1,7
Cc1cc(C(=O)Nc2cccc3c2O[C@@H](CN(C)C(=O)NC(C)C)[C@H](C)CN([C@H](C)CO)C3=O)n(C)n1,19,3
CN(C)CC(=O)N[C@@H]1CC[C@H](CCNC(=O)C2CCCC2)O[C@@H]1CO,-7,9
COc1ccccc1-c1cnc2c(c1)C(=O)N([C@H](C)CO)C[C@@H](C)[C@@H](CN(C)Cc1ccc(F)cc1)O2,?,/
CC(C)NC(=O)Nc1ccc2c(c1)CC(=O)N([C@@H](C)CO)C[C@H](C)[C@@H](CN(C)S(=O)(=O)c1ccc(Cl)cc1)O2,7,3
C[C@@H]1CN([C@@H](C)CO)C(=O)Cc2cc(NC(=O)Nc3ccc4c(c3)OCO4)ccc2O[C@H]1CN(C)S(=O)(=O)c1ccccc1,-2,-1
O=C(C[C@H]1C=C[C@@H](NC(=O)Nc2ccc(C(F)(F)F)cc2)[C@@H](CO)O1)NCCN1CCCC1,9,4
CCCNC(=O)N1C[C@@H](C)[C@@H](OC)CN(C)C(=O)c2cc(NS(=O)(=O)CC)ccc2OC[C@H]1C,-3,0
CO[C@H]1CN(C)C(=O)c2cc(NC(=O)C3CCCC3)ccc2OC[C@H](C)N(CC2CC2)C[C@H]1C,-3,1
Cc1noc(C)c1NC(=O)N(C)C[C@@H]1OCCCC[C@@H](C)Oc2ccc(NS(=O)(=O)c3c(C)noc3C)cc2C(=O)N([C@H](C)CO)C[C@@H]1C,11,5
COCC1=C2[C@@H](c3ccccc3)OB(O)C[C@@H]2[C@@H]2C(=O)N(Cc3ccccc3)C(=O)[C@@H]2C1,9,9
CO[C@@H]1CN(C)C(=O)c2ccc(NC(=O)c3ccc(F)cc3)cc2OC[C@H](C)N(C(=O)c2ccc(F)cc2)C[C@@H]1C,-25,-4
C[C@@H]1CN([C@H](C)CO)S(=O)(=O)c2ccc(C3=CCCC3)cc2O[C@@H]1CN(C)C(=O)c1ccccc1,25,23
O=C(Nc1cccc(Cl)c1)N[C@@H]1CC[C@H](CCNC(=O)C2CCCC2)O[C@H]1CO,6,6
COc1ccc(NC(=O)Nc2ccc3c(c2)C(=O)N([C@@H](C)CO)C[C@H](C)[C@@H](CN(C)S(=O)(=O)c2ccc(C)cc2)O3)cc1,11,12
CC(=O)N(C)C[C@@H]1Oc2cc(C#Cc3ccncc3)ccc2S(=O)(=O)N([C@H](C)CO)C[C@H]1C,-18,-14
O=C(C[C@H]1CC[C@H]2[C@@H](COC[C@@H](O)CN2Cc2cccc(C(F)(F)F)c2)O1)NCc1ccccc1,-22,-5
Cc1ccccc1S(=O)(=O)N(C)C[C@@H]1OCc2cn(nn2)CCCC(=O)N([C@@H](C)CO)C[C@H]1C,-5&18,6&8
COc1ccc(NC(=O)N2CCCCN3[C@H](CO)[C@@H](c4ccc(C#CCC(C)C)cc4)[C@@H]3C2)cc1,-8,-24
COc1ccccc1-c1ccc([C@@H]2[C@H]3CN(S(=O)(=O)c4cn(C)cn4)CCCCN3[C@H]2CO)cc1,-11,-29
C[C@H](CO)N1C[C@H](C)[C@@H](CN(C)C(=O)Nc2ccccc2)Oc2ccc(NC(=O)CCC(F)(F)F)cc2CC1=O,5,7
O=C(C[C@@H]1C=C[C@H](NC(=O)Nc2ccccc2F)[C@H](CO)O1)NCc1ccc(F)cc1,-2,-2
CO[C@@H]1CN(C)C(=O)c2cc(NC(=O)C3CC3)ccc2OC[C@H](C)N(C(=O)c2cnccn2)C[C@@H]1C,4,6
O=C(C[C@H]1CC[C@@H](NC(=O)C2CC2)[C@H](CO)O1)NCc1ccccc1Cl,13,11
C[C@H]1CN([C@@H](C)CO)C(=O)c2cc(NS(C)(=O)=O)ccc2O[C@@H]1CN(C)C,12,0
CCCN1C[C@H](C)[C@H](OC)CN(C)C(=O)c2ccc(NC(=O)c3cnccn3)cc2OC[C@@H]1C,15,7
CC(=O)N1[C@@H]2Cn3c(ccc(-c4ccccc4F)c3=O)[C@H]1[C@@H](C(=O)NC1CCC1)[C@@H]2CO,4,6
Cc1noc(C)c1NC(=O)N(C)C[C@@H]1Oc2ccc(NS(C)(=O)=O)cc2C(=O)N([C@@H](C)CO)C[C@H]1C,4,1
CNC[C@@H]1Oc2ccc(NS(=O)(=O)c3ccc(Cl)cc3)cc2C(=O)N([C@H](C)CO)C[C@H]1C,7,5
CN1CCN(C(=O)C[C@@H]2C[C@H]3c4cc(NC(=O)Nc5ccc(C(F)(F)F)cc5)ccc4O[C@H]3[C@H](CO)O2)CC1,3,0
O=C(C[C@@H]1C[C@H]2c3cc(NC(=O)c4cccnc4)ccc3O[C@H]2[C@H](CO)O1)NCc1ccncc1,-1,-1
COCCNC(=O)C[C@@H]1CC[C@@H]2[C@H](COC[C@@H](O)CN2C(=O)Nc2ccccc2OC)O1,-7,-10
CCNC(=O)C[C@H]1CC[C@@H]2[C@H](COc3ccc(NC(=O)Nc4ccccc4C)cc3C(=O)N2C)O1,9,9
COCCNC(=O)C[C@@H]1C=C[C@@H](NC(=O)NC2CCCC2)[C@@H](CO)O1,-2,4
CC(C)NC(=O)Nc1ccc2c(c1)CC(=O)N([C@H](C)CO)C[C@H](C)[C@@H](CN(C)C(=O)Nc1ccc3c(c1)OCO3)O2,8,8
O=C(Nc1cccc(F)c1)N1CC(=O)N2[C@@H](CO)[C@@H](c3ccc(C#Cc4cccnc4)cc3)[C@@H]2C1,-16,-19

(cont.)
compound,Vaccinia stage,Vaccinia stage Venus
CO[C@H]1CN(C)C(=O)c2ccc(NC(=O)C3CC3)cc2OC[C@H](C)N(C(=O)c2ccccc2)C[C@H]1C,12,9
C[C@H]1CN([C@@H](C)CO)C(=O)c2cccc(NC(=O)c3ccc(-c4nccs4)cc3)c2O[C@@H]1CN(C)C(=O)Nc1cccc2ccccc12,-1,4
C[C@H]1CN([C@@H](C)CO)C(=O)c2cc(C#CC3(O)CCCC3)cnc2O[C@@H]1CN(C)C(=O)CC1CC1,9,6
O=C(NCc1ccccc1F)[C@H]1[C@H](CO)[C@H]2Cn3c(cccc3=O)[C@H]2N1C(=O)CC1CC1,-6,-2
O=C(C[C@H]1CC[C@@H](NC(=O)C2CCC2)[C@H](CO)O1)Nc1nccs1,15,16
C[C@H](CO)N1C[C@H](C)[C@H](CN(C)C(=O)Nc2ccc(F)cc2)Oc2ccc(NS(=O)(=O)c3cn(C)cn3)cc2CC1=O,8,7
COc1ccc2c3c(n(C)c2c1)[C@H](CO)N(C(=O)c1ccccc1)CC31CCN(CC2CC2)CC1,?,/
COc1ccc2c3c([nH]c2c1)[C@H](CO)N(C(C)=O)CC31CN(S(=O)(=O)c2cccs2)C1,-5,-13
C[C@@H]1CN([C@H](C)CO)C(=O)c2cccc(NS(C)(=O)=O)c2O[C@@H]1CN(C)Cc1ccc(Oc2ccccc2)cc1,9,-1
OC[C@H]1[C@H](c2ccc(C#CC3CC3)cc2)[C@H]2CN(CCC(F)(F)F)CCCCN21,-33,-25
CC(C)C#Cc1cnc2c(c1)C(=O)N([C@@H](C)CO)C[C@H](C)[C@H](CN(C)C(=O)Nc1cc(F)ccc1F)O2,-7,-9
C[C@@H]1CN([C@@H](C)CO)C(=O)c2cc(NC(=O)Cn3cnnn3)ccc2O[C@H]1CN(C)C(=O)Nc1ccc(F)cc1,25,7
COCCNC(=O)C[C@@H]1C[C@H]2c3cc(NC(=O)Nc4ccc(OC)cc4)ccc3O[C@H]2[C@@H](CO)O1,14,16
COc1ccc(CN(C)C[C@@H]2Oc3c(NS(=O)(=O)c4cn(C)cn4)cccc3C(=O)N([C@@H](C)CO)C[C@H]2C)cc1,14,7
C[C@H](CO)N1C[C@H](C)[C@H](CN(C)C(=O)c2ccccn2)Oc2cc(C#CC3CC3)ccc2S1(=O)=O,6,5
C[C@@H]1CN([C@H](C)CO)C(=O)c2cc(NC(=O)c3ccncc3)ccc2O[C@@H]1CN(C)Cc1ccc2c(c1)OCO2,-12,-8
C[C@H](CO)N1C[C@H](C)[C@H](CN(C)C)Oc2c(NC(=O)Nc3ccc(C(F)(F)F)cc3)cccc2C1=O,?,/
O=C(c1ccncc1)N1C[C@H]2[C@@H](c3ccccc31)[C@@H](CO)N2Cc1ccc(F)cc1,-32,-22
COCC(=O)Nc1ccc2c(c1)OC[C@@H](C)N(C(=O)c1cnccn1)C[C@@H](C)[C@H](OC)CN(C)C2=O,13,5
C[C@@H]1CN([C@H](C)CO)C(=O)c2c(c3ccccc3n2C)-c2ccccc2CO[C@H]1CN(C)C(=O)c1ccc(F)cc1,-19,-12
C[C@@H]1CCCCO[C@H](CN(C)C(=O)Cc2ccccc2)[C@@H](C)CN([C@@H](C)CO)C(=O)c2cc(NC(=O)Nc3ccc4c(c3)OCO4)ccc2O1,-1,-7
COCc1cn(CC[C@H]2CC[C@H](NC(=O)c3ccncc3)[C@@H](CO)O2)nn1,2,3
C[C@@H]1CN([C@H](C)CO)C(=O)c2cc(NS(=O)(=O)c3cccs3)ccc2O[C@@H]1CN(C)Cc1ccc(Cl)c(Cl)c1,-21,-15
CNC[C@H]1Oc2ccc(NC(=O)Nc3ccccc3)cc2CC(=O)N([C@@H](C)CO)C[C@H]1C,10,0
O=C(Nc1ccccc1F)N1C[C@H]2[C@@H](c3ccccc31)[C@@H](CO)N2C(=O)C1CCCC1,5,8

3 consecutive compounds out of the list so far, for reference:
compound,Vaccinia stage,Vaccinia stage Venus
C[C@@H](NC(=O)C[C@@H]1C[C@@H]2c3cc(NC(=O)C4CCC4)ccc3O[C@@H]2[C@H](CO)O1)c1ccccc1,18,13
CO[C@@H]1CN(C)C(=O)c2ccc(NC(=O)c3ccc4c(c3)OCO4)cc2OC[C@@H](C)N(CC2CC2)C[C@H]1C,8,0
CCCNC(=O)N[C@H]1CC[C@H](CCn2cc(C3CC3)nn2)O[C@@H]1CO,1,4

Other records:
compound,Vaccinia stage,Vaccinia stage Venus
COc1ccccc1C#Cc1ccc([C@@H]2[C@H]3CN(C(=O)C4CCCC4)CCCCN3[C@H]2CO)cc1,?,/
COc1ccc(CN(C)C[C@@H]2Oc3ccc(NC(=O)C4CCCCC4)cc3C(=O)N([C@@H](C)CO)C[C@H]2C)cc1,-10,-7
COc1ccc(CN(C)C[C@@H]2Oc3ccc(N(C)C)cc3CC(=O)N([C@@H](C)CO)C[C@H]2C)cc1,-3,0
C[C@@H]1CN([C@H](C)CO)C(=O)c2cc(NS(=O)(=O)c3cn(C)cn3)ccc2O[C@@H](C)CCCCO[C@H]1CN(C)S(=O)(=O)c1cccs1,1,-3
COc1cccc(NC(=O)N[C@@H]2CC[C@H](CC(=O)NCc3ccncn3)O[C@@H]2CO)c1,0,1
O=C(C[C@H]1CC[C@H](NC(=O)Cc2ccccn2)[C@H](CO)O1)NCCCN1CCOCC1,-3,-5
C[C@@H]1CCCCO[C@@H](CN(C)C(=O)Nc2ccc(F)cc2)[C@@H](C)CN([C@H](C)CO)C(=O)c2cc(NC(=O)c3ccccc3)ccc2O1,-2,2

Pulled by structure from the list above (4):
compound,Vaccinia stage,Vaccinia stage Venus
CO[C@@H]1CN(C)C(=O)c2cc(NC(=O)C3CC3)ccc2OC[C@H](C)N(C(=O)c2cnccn2)C[C@@H]1C,4,6
COc1ccccc1C#Cc1ccc([C@@H]2[C@H]3CN(C(=O)C4CCCC4)CCCCN3[C@H]2CO)cc1,?,/
C[C@@H]1CN([C@@H](C)CO)C(=O)Cc2cc(NC(=O)Nc3ccc4c(c3)OCO4)ccc2O[C@H]1CN(C)S(=O)(=O)c1ccccc1,-2,-1
O=C(Nc1cccc(F)c1)N1CC(=O)N2[C@@H](CO)[C@@H](c3ccc(C#Cc4cccnc4)cc3)[C@@H]2C1,-16,-19
